Vaccinia mCherry: inhibitors of vaccinia virus infection (mCherry reporter signal); Vaccinia virus mCherry reporter infection, fluorescence; about a quarter of the inactives have no number; Potency, µM (titrated, usually from 36.5 µM), without a hit: at the top dose activity change, negative = inhibition, actives largely listed as inhibitors; actives 0.63% (n = 310,000); active = well fitted inhibition curve with a large enough effect; inconclusive = small, poorly fitted or top-dose-only effect; inactive = no such curve, though single readings can be large or run the other way; tested in A549 cells; note: nearly all actives have a fitted effect of over 35% in size; inactives centre near -10
Vaccinia Venus: inhibitors of vaccinia virus (Venus reporter). Vaccinia virus Venus reporter expression, fluorescence. Potency, µM (highest dose often 36.5 µM), for inactives: at the highest dose activity change, negative = inhibition, hits mostly inhibitors. actives 0.46% (n = 330,000); active means well fitted inhibition curve with a large enough effect; inconclusive means small, poorly fitted or top-dose-only effect; inactive means no such curve, though single readings can be large or run the other way; tested in A549 cells; note: nearly all actives have a fitted effect of over 30% in size; inactives centre near -10
Starred values were filed as active, the others as inactive; i = inactive; ? = inconclusive; · = no result given; [ ] = remark or other dose. % is set by controls: 0 for no effect and ±100 for the full control effect; potency is the fitted concentration of half-maximal effect.

Every second line gives: Vaccinia Venus	Vaccinia mCherry
COC(CNc1nc(SC)nc2sc3c(c12)CCN(C)C3)OC
→ -12%	-12%
Cc1ccc(C(=O)N/N=C\c2ccc[nH]2)cn1
→ 9%	-9%
O=C(Cn1c(=O)n(Cc2ccc(C(=O)NCc3ccccc3Cl)cc2)c(=O)c2ccccc21)Nc1ccc(F)c(Cl)c1
→ 0%	-5%
CC(=O)NCC(=O)NC1CC(C)(C)Cc2c1cnn2-c1ccccc1 (centres undefined)
→ 0%	i
Cc1cc(C)c(S(=O)(=O)NCC(c2ccc(N(C)C)cc2)N2CCc3ccccc32)c(C)c1 (centres undefined)
→ -25%	-24%
COc1cccc(CC2(CO)CCCN(CC3=Cc4cc(OC)ccc4OC3)C2)c1 (centres undefined)
→ -2%	-16%
Cc1nnc(SCC(=O)Nc2ccccc2NC(=O)CSc2nnc(C)s2)s1
→ 10%	·
CN(C)CCOc1cccc(Br)c1
→ 2%	i
COc1ccc(Cl)cc1NS(=O)(=O)c1cccc2cccnc12
→ -4%	-17%
Cc1cccc(NC(=O)CCN2CCCC(C)C2)c1 (centres undefined)
→ -9%	-21%
Cc1ccc(C2(CCNC(C)c3cccs3)CCOC(C(C)C)C2)cc1 (centres undefined)
→ -28%	-21%
C=CCn1c(=O)[nH]c2cc(C(=O)N3CC=C(c4ccccc4)CC3)ccc2c1=O
→ -7%	i
COc1ccc(-c2cc(=O)oc3cc(OCC(=O)NCCCn4ccnc4)ccc23)cc1
→ 11%	3%
CC(C)(C)C(=O)OCC12CCC(O1)C1(C)C(=O)OCC21 (centres undefined)
→ 2%	-14%
Cc1ccc(C(=O)C(OC(=O)c2cnccn2)c2ccccc2)cc1 (centres undefined)
→ -8%	i

Entries of single compounds as entered above:
Entry for `Cc1ccc(C(=O)N/N=C\c2ccc[nH]2)cn1` → Vaccinia Venus: 9%; Vaccinia mCherry: -9%
Entry for `Cc1cc(C)c(S(=O)(=O)NCC(c2ccc(N(C)C)cc2)N2CCc3ccccc32)c(C)c1` (centres undefined) → Vaccinia Venus: -25%; Vaccinia mCherry: -24%
Entry for `O=C(Cn1c(=O)n(Cc2ccc(C(=O)NCc3ccccc3Cl)cc2)c(=O)c2ccccc21)Nc1ccc(F)c(Cl)c1` → Vaccinia Venus: 0%; Vaccinia mCherry: -5%

Going on with the list:
Every second line gives: Vaccinia Venus	Vaccinia mCherry
COCCn1c(SCC(=O)c2cccc(OC)c2)nnc1-c1ccco1
→ -13%	-17%
O=C(Nc1ccc2c(c1)CCC2)c1cnn2c1NC(=C1CC1)C=C2C(F)F
→ -17%	-6%
COc1ccccc1Nc1nc(-c2cccs2)cs1
→ -13%	-15%
C=CCNC(=O)C1CC(=O)N(c2ccc(OCC(=O)Nc3cccc(OC)c3)cc2)C1 (centres undefined)
→ 1%	-11%
COc1ccc(C)cc1NC(=O)C(Sc1nnc(-c2ccncc2)n1-c1ccc(Cl)cc1)c1ccccc1 (centres undefined)
→ ?	?
O=C(C[n+]1ccccc1Cl)c1ccc(O)c(O)c1
→ -5%	41%[activator]
CCOC(=O)c1sc(=S)n(-c2cc(OC)ccc2OC)c1N
→ -6%	·
CCN1CCN(C(c2ccccc2)c2sc3nc(-c4ccco4)nn3c2O)CC1 (centres undefined)
→ -10%	i
CCN(CCCNC(=O)c1cc2c(=O)n(CC)c3ccccc3c2s1)c1ccccc1
→ -9%	-14%
O=C(CCCc1ccccc1)Nc1ccnn1C1CCN(Cc2ccc(CO)o2)CC1
→ -24%	-6%
O=C(Cc1cccs1)NCCCc1ccccc1
→ -16%	-13%
CCOC(=O)c1ccc(N2C(=O)CC(N3CCC(C(N)=O)(N4CCCCC4)CC3)C2=O)cc1 (centres undefined)
→ -9%	-12%
CCc1ccc(NCCC(=O)c2ccc(Cl)cc2)cc1
→ -13%	-4%
O=C1NC(=O)C2(CCCCCCCCCCC2)N1
→ -2%	4%
COc1cc(OC)cc(C(=O)Nc2c(C(=O)Nc3ccc(F)cc3)oc3ccccc23)c1
→ -21%	-25%

In a second layout: two of the compounds above
SMILES | Vaccinia Venus | Vaccinia mCherry
O=C(C[n+]1ccccc1Cl)c1ccc(O)c(O)c1 | -5% | 41%[activator]
CCN1CCN(C(c2ccccc2)c2sc3nc(-c4ccco4)nn3c2O)CC1 (centres undefined) | -10% | i

(next part)
Every second line gives: Vaccinia Venus	Vaccinia mCherry
Cc1cc(C(F)(F)F)n(-c2ccc(N)cc2)n1
→ -12%	i
C=CCn1c(O)c(N=Nc2ccccc2O)c2ccccc21
→ ?	-21%
Cc1onc(-c2c(Cl)cccc2Cl)c1NC(=O)N1CCSCC1
→ -2%	-19%
O=C1OC(/C(=C\NCc2ccccc2)[N+](=O)[O-])c2ccccc21 (centres undefined)
→ -11%	-16%
COc1ccc(/C(C)=N/Nc2nc3ccccc3nc2C)cc1OC
→ -10%	-13%
Cc1ccc(NC(=O)CSc2nnc3scc(-c4ccccc4)n23)cc1
→ -1%	-12%
COc1ccc(C)cc1N(CC(=O)NCCSCc1cccc(Cl)c1)S(C)(=O)=O
→ -18%	-27%
Cn1nc(-c2ccccc2)c(CSc2cccc(Cl)c2)c1Cl
→ ?	-27%
O=[N+]([O-])c1ccccc1S(=O)(=O)NC1CCCCCCC1
→ -19%	-26%
O=C(COc1cccc2c1CCN(Cc1ccccc1F)C2=O)N1CCCCC1
→ -11%	i
COc1ccc(OC)c(CNC(=O)c2ccc(NC(=O)c3nsc4ccccc34)cc2)c1
→ -10%	-9%
COC(=O)CS(=O)(=O)c1ccc(C)cc1
→ -5%	-14%
COc1ccccc1N(CC(=O)Nc1ccc(C)cc1Cl)S(=O)(=O)c1cccs1
→ -7%	i
Cc1cc(C)nc(N/N=C/c2c[nH]c3ccccc23)n1
→ -15%	-24%
O=C(NNC(=O)c1cc2ccccc2o1)c1ccc(F)cc1
→ -15%	-13%
CC(=O)N1CCC(N(CCN2CCOCC2)C(=S)Nc2c(C)cccc2C)CC1
→ -11%	-8%
COc1cc(C(O)P(=O)(OCC(C)C)c2ccc(N(C)C)cc2)cc(OC)c1OC (centres undefined)
→ -16%	-24%
Cc1ccc2nc(-c3cccc(Br)c3)c(Cc3ccccc3)n2c1
→ 9%	9%
O=C(CS(=O)c1ccc(F)cc1)Nc1ccccc1Cl (centres undefined)
→ -2%	-5%
Cc1ccc(S(=O)(=O)SCCCSS(=O)(=O)c2ccc(C)cc2)cc1
→ 3%	i
CCc1ccc(NC(=O)C2CCCN(S(=O)(=O)c3ccc4c(c3)oc(=O)n4C)C2)cc1 (centres undefined)
→ -7%	-9%
NC1=NN(c2cccc(C(=O)O)c2)C(=O)C1
→ -16%	-9%
Cc1nc(NC(=O)CCl)sc1C(=O)N(C)C
→ ?	?
CCCN(C(=O)Cn1ncc2c([nH]c3ccccc32)c1=O)c1ccccc1C
→ -9%	-11%
CC(=O)c1sc(NC(=O)CCS(=O)(=O)c2ccc(C)cc2)nc1C
→ ?	-28%
O=C(CNC(=O)c1ccccc1)OC1CCCCC1
→ 6%	i
CC(C)C[C@@H]1Cc2[nH][nH]c(=O)c2[C@H](CCc2ccccc2)O1
→ -12%	-12%
CCOc1ccc(N(CC(=O)Nc2ccc(OC)cc2)S(=O)(=O)c2c(C)[nH]c(=O)[nH]c2=O)cc1
→ -2%	i
CCOC(=O)C1CCCCN1C(=O)c1ccc(-n2cc(NC(=O)c3cccnc3)cn2)cc1 (centres undefined)
→ 1%	-3%
Nc1cccc2c1C(=O)N(c1ccccc1)C2=O
→ -9%	2%
CC(C)CC(=O)N(Cc1ccccc1)S(=O)(=O)c1ccc2c(c1)oc(=O)n2C
→ -18%	-15%
CCNC(=O)N(C)c1c(CC)nc2ccc(C(=O)N3CCN(C(=O)c4ccco4)CC3)cn12
→ -6%	41%[activator]
Cc1ccccc1CSc1nnc([C@@H]2CCCN2)o1
→ -2%	i
Cc1cccc(N2CCN(S(=O)(=O)c3ccc(Cl)nc3)CC2C)c1 (centres undefined)
→ -15%	?
COc1ccc2c(c1OC)CN(C)CCc1cc3c(cc1C(O)C2)OCO3 (centres undefined)
→ -20%	·
COc1ccc(/C(C)=N\Nc2nc(-c3ccc(Cl)cc3)cc(C(F)(F)F)n2)cc1OC
→ -10%	i
CN(C[C@H](c1ccccc1)N(C[C@H](Cc1ccccc1)N(CCc1ccccc1)N=O)N=O)N=O
→ -10%	i
Cc1cc(C(=O)N/N=C/c2ccc(C)s2)n[nH]1
→ -8%	-8%
Cc1cc(C)c(Cn2c3ccccc3c3cnn(CC(=O)NCc4ccc(Cl)cc4)c(=O)c32)c(C)c1
→ ?	?
CCOC(=O)C1=C(C)NC(C)=C(C(=O)OC)C1c1cccc([N+](=O)[O-])c1 (centres undefined)
→ -20%	-6%
O=C(CN1CCCCCCC1)N/N=C/c1ccc([N+](=O)[O-])o1
→ 10µM*	11µM*
Cc1cc(=O)[nH]c2nnc(SCC(N)=O)n12
→ -4%	-12%
COc1ccc2nc(NCCCO)[nH]c2c1
→ 4%	0%
CN1CCN(C(=O)CN2C(=O)NC(C)(c3ccc4ccccc4c3)C2=O)CC1 (centres undefined)
→ -9%	-1%
Cc1cc(C)cc(NC(=O)Cn2cc(S(=O)(=O)NC(C)(C)C)c(S(=O)(=O)NC(C)(C)C)c2)c1
→ ?	-28%
CCOc1ccc(CC2C(=O)NC(=O)N(c3ccc(CC)cc3)C2=O)cc1 (centres undefined)
→ 0%	-15%
CCCc1c(C(=O)N/N=C(\C)c2ccc3c(c2)OCO3)nnn1-c1nonc1N
→ -6%	i
COc1ccc(C(=O)O)c(O)c1OC
→ 0%	i
CN(Cc1ccccc1)C(=O)COC(=O)CNS(=O)(=O)c1ccc2ccccc2c1
→ -17%	i
COC(=O)C1=CN(c2ccc(F)cc2)C(N)=C(C#N)C1c1cccc(OC)c1OC (centres undefined)
→ -21%	?
CN(C)c1ncccc1-c1nc2ccccc2s1
→ 3%	0%
COc1ccc(/C=N/OCC(=O)Nc2nc3ccccc3s2)cc1OC
→ -6%	-20%
Oc1ccc2c(ccc3[nH]cnc32)c1
→ -20%	-10%
CCCNC(=O)C1(CC2CC(c3ccccc3)=NO2)CCN(C(=O)c2cc(OCC)c(OCC)c(OCC)c2)CC1 (centres undefined)
→ -24%	-27%
CC(=N\O)/C(CN(C)C)=N/O
→ 0%	-13%
Cc1ccc(-c2nc3ncccc3o2)cc1NC(=O)c1ccccc1
→ 5%	1%
CC(=O)Nc1cccc(-c2ccnc3c2CC(C)(C(=O)Nc2cccc(C(F)(F)F)c2)O3)c1 (centres undefined)
→ ?	-2%
COc1cc(C(=O)NC(c2ccccc2)c2ccccc2)cc(OC)c1C
→ 1%	-1%
CC(C)Nc1nc(Oc2ccc(=O)n(-c3ccccc3)n2)nc(N(C)C)n1
→ -14%	-12%
CC(NC(=O)CN1CCN(CC(=O)Nc2ccccc2Cl)CC1)c1ccc(Br)cc1 (centres undefined)
→ -19%	-1%

(further entries)
Every second line gives: Vaccinia Venus	Vaccinia mCherry
O=C(N/N=C/c1cc2c(cc1Cl)OCO2)c1cc(-c2ccccc2)n[nH]1
→ -8%	-10%
Cn1c(Oc2ccc(Cl)cc2)c(C=O)c2ccccc21
→ ?	-21%[1.46 µM]
CC(=O)Oc1ccccc1/C=C1\CCOC1=O
→ -25%	-19%
Cc1c(C(=O)Nc2cccnc2Cl)oc2ccccc12
→ -9%	-22%
CCc1c(C(=O)OC)ncc2[nH]c3cc(OC)c(OC)cc3c12
→ -20%	i
Cc1ccc(C)c(-c2nnc(NC(=O)CS(=O)(=O)c3ccccc3)o2)c1
→ -21%	-18%
O=C(NCc1ccco1)/C(=C/c1cccnc1)NC(=O)c1ccco1
→ -4%	-7%
O=C(NCC1CCCO1)C1CCN(C2CCN(C(=O)Cc3ccsc3)CC2)CC1 (centres undefined)
→ ?	?
CCOc1ccc(/C=N/N2C(=O)C(CC(=O)Nc3ccc(F)cc3F)SC2=NC)cc1OC (centres undefined)
→ ?	?
O=C(Cn1c(=O)oc2cc(S(=O)(=O)NCc3ccccc3)ccc21)NCc1ccco1
→ -8%	4%
O=C(Nc1cc(S(=O)(=O)Nc2ccc(Cl)cc2)ccc1O)c1ccc(F)cc1F
→ ?	?
CC[C@]1(c2ccccc2OC)C(=O)N(C(=O)OC)N1C(=O)OC
→ -21%	-15%
Cc1cccn2c(=O)cc(CSc3nnc(NC(=O)COc4ccccc4)s3)nc12
→ -5%	-21%
COc1ccc(-c2csc(NC(=O)C3CC(=O)N(c4ccc5c(c4)OCCO5)C3)n2)cc1 (centres undefined)
→ -20%	i
O=C(Nc1cccc(S(=O)(=O)NCc2ccco2)c1)c1ccc(Cl)cc1
→ 1%	-15%
CN(C)S(=O)(=O)N(CC(=O)N1CCN(c2ccccc2F)CC1)c1ccccc1
→ 7%	1%
Cc1nc(N2CCOCC2)nc(OCCN(C)C)c1[N+](=O)[O-]
→ -9%	i
Cc1ccc(C(=O)NNC(=O)c2ccc3ccccc3c2)cc1
→ -6%	-13%
Cc1ccc(N2C(=O)CC(=O)NC2=O)cc1Cl
→ -3%	i
CC[C@]12c3[nH]c4ccccc4c3CCN1C(=O)C(CC(=O)NCc1ccco1)C[C@@H]2C(=O)N1CCN(C(=O)C2CC2)CC1 (some centres undefined)
→ -13%	-2%
CC1=CC(C)(C)n2c(O)c(N=N)c3c(C)c(C)cc1c32
→ -17%	-7%

Bioassay records deposited in PubChem BioAssay by National Center for Advancing Translational Sciences (NCATS).
